Calb FLC = C. albicans growth modulation with fluconazole | C. albicans CaCi-2 (fluconazole-resistant clinical isolate) + fluconazole, Alamar Blue growth, 48 h | growth inhibition, % (test concentration not listed) | 300,000 compounds, 0.57% hits;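 active = most replicates above 75%; inconclusive = exactly half above 75%; inactive = most below 75%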;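 also: all wells also contain fluconazole at 8 µg/ml as a sub-toxic cotreatment; 0% = median of DMSO wells and 100% = median of geldanamycin control wells; wells of about 8 µL received 7.5 nL stock; the first replicate is given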
Bfl-1 A1 inh = inhibitors of the anti-apoptotic protein A1, read as caspase activation; AID 2462; caspase activation, % (test concentration not listed); MEF A1-2A-BIM cells, Caspase-Glo 3/7 luminescence, 3 h; percent of clofoctol response, vehicle zero; 330,000 compounds, 0.066% hits;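 active = over half of replicate activation scores above 10%, or exactly half above 10 with the replicate mean above 10; inconclusive = replicate mean below 10 yet half the replicates above 10; inactive = over half of replicates below 10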;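 also: wells of about 30 µL received 50 nL stock; many hits fall short of the cut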
T cruzi repl = T. cruzi replication inhibition; T. cruzi beta-gal in NIH3T3, luminescence, 90 h; inhibition, % (concentration not given with the values); 300,000 compounds, 1.4% hits; AID 1885;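 active = mean inhibition across valid replicates above about 55%, limit read from the data; inconclusive = mean below that limit but half or more replicates reach it; inactive = mean below it, under half of replicates reach it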;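 also: signal also drops with host cell toxicity which is not excluded here; 0% = plate median of DMSO wells and 100% = zero luminescence signal; higher percent means less beta-gal luminescence so fewer parasites; stock transfer was 50 nL into about 50 µL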
B2AR ag = agonists of human beta-2 adrenergic receptor inducing internalization. P07550. Am2.2-beta2AR cells, FAP receptor internalization, flow cytometry; reference of the scale not given here. response, % (no concentration beside the values). 340,000 compounds, 0.43% hits. AID 504454;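 active = response above a set limit, near 3 SD of response in nonfluorescent compounds, cut at about 42% in these data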;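 also: stock transfer was 100 nL into about 11 µL; a reference agonist was the positive control; negative values mostly stem from fluorescent compounds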
Beta cell apopt = beta cell apoptosis inhibition; INS-1E cytokine-induced death, ATP luminescence, 48 h; percent of positive-control rescue, neutral wells zero; protection from apoptosis, % (concentration not given with the values); 300,000 compounds, 0.8% hits;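 active = all replicates at 75% or more, or half of them and the mean; inconclusive = half reach 75% but not the mean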;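 also: 0% = cytokine-treated negative control wells and 100% = positive control rescue; higher means more ATP so stronger rescue from cytokine killing; wells of about 40 µL received 100 nL stock; the first replicate is given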
rRNA inh HTS = inhibitors of bacterial rRNA selective over humanized ribosomes | E. coli WT GFP vs humanized-ribosome RFP mutants, fluorescence, 24 h; active compounds read low; DMSO median 0, no signal -100 | GFP signal change (wild-type ribosome), % (no concentration beside the values) | 350,000 compounds, 1.6% hits;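 active = significant combined selectivity score with lowered wild-type GFP, culture density cut under 30%, mutant RFP and density less affected; inactive = any of these conditions unmet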; also: one replicate is shown; some compounds called inactive have numbers as strong as hits
ALR inh = human ALR oxidase inhibition via reduced H2O2; P55789; purified ALR, DTT oxidation, H2O2 HRP-luminol luminescence; inhibition, % (test concentration not listed); 290,000 compounds, 3.8% hits;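 active = mean and each replicate at 75% or more; inconclusive = only one of the two met; inactive = neither met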;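 also: stock transfer was 7.5 nL into about 7.5 µL; 0% = neutral wells and 100% = wells with inactivated enzyme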
LANA-H2A inh = blocks KSHV LANA binding to histone H2A/H2B. cell-free LANA-H2A/H2B peptide, fluorescence polarization. inhibition, % (test concentration not listed). 320,000 compounds, 0.6% hits; in the data active = inhibition mostly above about 10%, no sharp cut-off; inactive = mostly below about 6.7%;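 also: stock transfer was 7.5 nL into about 10 µL; 0% = median of vehicle wells and 100% = median of positive control wells; one replicate is shown; the record names a cut of 25% in any replicate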
Target sequence (Q9QR71 whole entry, looked up): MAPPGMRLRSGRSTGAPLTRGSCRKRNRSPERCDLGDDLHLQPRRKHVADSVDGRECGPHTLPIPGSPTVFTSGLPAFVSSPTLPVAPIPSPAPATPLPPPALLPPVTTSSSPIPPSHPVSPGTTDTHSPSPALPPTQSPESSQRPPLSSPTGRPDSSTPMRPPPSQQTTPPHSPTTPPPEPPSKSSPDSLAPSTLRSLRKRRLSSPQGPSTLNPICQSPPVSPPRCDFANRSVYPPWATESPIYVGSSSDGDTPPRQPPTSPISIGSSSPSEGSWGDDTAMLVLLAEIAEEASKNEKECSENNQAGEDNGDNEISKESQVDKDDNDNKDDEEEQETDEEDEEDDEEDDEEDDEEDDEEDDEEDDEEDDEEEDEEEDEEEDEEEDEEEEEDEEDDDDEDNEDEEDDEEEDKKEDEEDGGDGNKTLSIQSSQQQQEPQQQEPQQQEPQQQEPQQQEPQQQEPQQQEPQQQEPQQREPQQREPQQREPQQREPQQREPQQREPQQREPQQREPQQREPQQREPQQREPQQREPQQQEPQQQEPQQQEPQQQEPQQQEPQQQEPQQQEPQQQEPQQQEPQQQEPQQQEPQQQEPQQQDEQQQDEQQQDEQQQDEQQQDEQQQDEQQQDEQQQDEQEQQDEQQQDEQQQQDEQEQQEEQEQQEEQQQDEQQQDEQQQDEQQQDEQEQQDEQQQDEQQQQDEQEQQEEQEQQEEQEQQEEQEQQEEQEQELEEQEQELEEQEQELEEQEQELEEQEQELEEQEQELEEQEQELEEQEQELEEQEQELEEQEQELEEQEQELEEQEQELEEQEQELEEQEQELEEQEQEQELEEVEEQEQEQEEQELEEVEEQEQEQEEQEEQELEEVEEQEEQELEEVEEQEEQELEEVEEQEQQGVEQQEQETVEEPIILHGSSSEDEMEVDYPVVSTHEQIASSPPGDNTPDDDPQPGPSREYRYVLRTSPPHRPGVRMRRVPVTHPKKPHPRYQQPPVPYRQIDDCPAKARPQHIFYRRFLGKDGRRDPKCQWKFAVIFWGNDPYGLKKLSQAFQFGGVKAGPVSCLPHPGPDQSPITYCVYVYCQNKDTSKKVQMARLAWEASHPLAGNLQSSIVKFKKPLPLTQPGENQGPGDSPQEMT
rRNA inh HTS OD600 = second read-out of rRNA inh HTS, no call of its own (marks repeat the call); OD600 change, %; measured here: OD600 growth;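 optical density of the mix in the first replicate; 0 = DMSO median and -100 = no signal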
rRNA inh HTS RFP = further read-out of rRNA inh HTS, marked with its call; RFP signal change, %; measured here: RFP humanized mutant strains;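 first replicate; 0 = DMSO median and -100 = no signal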
Starred values were filed as active, the others as inactive; i = inactive; ? = inconclusive; · = not tested or not shown; & = joins results of further samples; ! = not confirmed by another sample. Some of the compounds tested (hit frequency here may not be typical).

SMILES	Calb FLC	Bfl-1 A1 inh	T cruzi repl	B2AR ag	Beta cell apopt	rRNA inh HTS	rRNA inh HTS OD600	rRNA inh HTS RFP	ALR inh	LANA-H2A inh
CSCC[C@H](NC(=O)[C@@H]1CSC2c3ccccc3C(=O)N21)C(=O)NCc1ccco1 (stereo partly drawn)	5	0.1	-4	0	-3	5	4	0.4	0	1.3
COCCCNC(=O)/C(C#N)=C/c1cccc(NC(=O)c2ccccc2Cl)c1	-7	-0.4	-4	10	7	·	·	·	-2	4.1
Cc1cc2c3c(ccc(C)c3n1)N=CN2c1ccccc1	7	0.8	12	-3	-7	·	·	·	-1	-0.5
CCOc1ccccc1/C=C/C(=O)c1ccc(Cl)cc1	-6	-1.1	18	35	0	-27*	-10*	6.7*	·	-3.7
COc1ccc2ccccc2c1C(=O)/C=C\c1ccoc1	2	0.5	-7	3	-10	·	·	·	-4	-6.5
Cc1ccc(C(=O)C2OC(=O)C(C)(C)C(=O)C2(C)C)cc1 (stereo not drawn)	1	0.2	0	33	0	·	·	·	-1	3.1
O=C(NCc1ccccc1)C(c1ccccc1F)N(C(=O)c1csnn1)C1CCCC1 (stereo not drawn)	-12	-0.2	19	18	0	-2	-16	0.7	-1	4.9
Cc1ccc(S(=O)(=O)N(C)C)cc1NC(=O)c1ccccc1SCC(=O)N1CCCC1	·	0.7	·	0	-7	8	11	1.1	·	4.2
CCOc1ccc(NC(=S)N(CCOC)C(C)c2cccnc2)cc1 (stereo not drawn)	2	0.2	13	-1	-5	10	9	1.9	4	-6.1
CCC1C(=O)N=C(SCC(=O)Nc2ccc(S(N)(=O)=O)cc2)NC1=O (stereo not drawn)	3	-0.6	0	6	-5	7	9	-1.3	100*	-2.5
Cc1cc(C)cc(NC(=O)c2cc(C)nc3ccccc23)c1	15	0.4	-15	3	1	4	15	1.5	-15	2.8
COc1ccc(C(=O)N/C(=C\c2cn(C)c3ccccc23)C(=O)OCCN(C)C)cc1	-8	0.4	16	16	-10	-2	4	1.5	29	-0.3
O=C(Nc1ccccc1)C(=O)c1c[nH]c2ccccc12	-85	0.4	0	13	5	1	2	-1.5	-9	-0.7
CCOC(=O)/C=C1\SCC(=O)N1CC(=O)Nc1cccc(F)c1	-12	0.8	-4	11	-7	22	16	8.5	-12	-2.2
Nc1nonc1-n1nnc(C(=O)N/N=C/c2cccc(F)c2)c1CN1CCCC1	7	0.0	2	-14	2	6	1	2.8	-4	2.7
CCOC(=O)c1c(C)n(C)c2ccc(OCC(O)CN(CC)CC)cc12 (stereo not drawn)	-6	-0.5	-11	0	1	-6	5	0.1	-13	1.5
COc1ccc(S(=O)(=O)N2CCOCC2)cc1NC(=O)CSc1nc(C)c(C)c(C)n1	·	0.6	·	-1	3	4	3	-0.4	-2	2.2
COCc1cc(C)nc(SCc2nc3ccccc3c(=O)[nH]2)c1C#N	11	0.3	47	-12	-8	3	1	-1.5	-8	-2.4
O=C(NC1=NCCS1)c1ccc2c(c1)C(=O)N(Cc1ccco1)C2=O	2	0.5	-17	28	4	-12	12	8.8	-3	5.9
Cc1cc(O)c(C(C)C)cc1N=Cc1ccccc1O	4	-0.3	-5	0	-5	7	9	5.0	71	-1.2
Cc1cccc(OCC(=O)NC2CCCC2)c1	-8	0.9	-6	-4	-5	4	6	0.7	·	-10
COc1ccc(C(=O)C[n+]2cc(-c3ccc(OC)cc3)n3c2CCCC3)cc1	-27&-40	0.1&1.6	62*!	-4&8	72	-18&-59	-11&-83	10&-19	-10&-4	-0.2&-0.3
Clc1ccc(-n2ncc3c(NCc4ccco4)ncnc32)cc1	?	-0.7	-40	2	·	·	·	·	16	0.1
CC(=O)Nc1ccc(NC(=O)COC(=O)c2c(-c3ccccc3)noc2C)cc1	·	0.8	·	-8	1	-4	-9	0.4	-2	2.4

Random excerpt: two records from the list, in no set order.
SMILES	Calb FLC	Bfl-1 A1 inh	T cruzi repl	B2AR ag	Beta cell apopt	rRNA inh HTS	rRNA inh HTS OD600	rRNA inh HTS RFP	ALR inh	LANA-H2A inh
CCOC(=O)c1c(C)n(C)c2ccc(OCC(O)CN(CC)CC)cc12 (stereo not drawn)	-6	-0.5	-11	0	1	-6	5	0.1	-13	1.5
Cc1cccc(OCC(=O)NC2CCCC2)c1	-8	0.9	-6	-4	-5	4	6	0.7	·	-10

Next section.
SMILES	Calb FLC	Bfl-1 A1 inh	T cruzi repl	B2AR ag	Beta cell apopt	rRNA inh HTS	rRNA inh HTS OD600	rRNA inh HTS RFP	ALR inh	LANA-H2A inh
CCOc1ccc(CN2CCNC(=O)C2CC(=O)NCCCC2CCCC2)cc1 (stereo not drawn)	1	-0.7	19	-3	-5	-14	-19	1.6	1	3.6
CCN(CC)c1ncc(C)c(=O)[nH]1	-7	0.4	3	-6	-1	·	·	·	·	·
N#Cc1c(NC(=O)CSC2=NCCS2)sc2c1CCCC2	-2	0.9	37	-4	4	·	·	·	?	3.7
COc1ccc(C(C(=O)NCC2CCCO2)N(C(=O)CNC(=O)c2ccco2)c2ccc(C)c(C)c2)cc1OC (stereo not drawn)	-3	0.9	-1	-14	4	11	16	0.2	-2	-3.5
C=C(C)CSc1nc(N)c2c3c(sc2n1)CCC3	-6	-0.5	-11	-5	11	-40*	-32*	-11*	0	-1.1
CCC1(c2ccccc2)NC(=O)N(CC(=O)Nc2ccccc2C(=O)NC2CC2)C1=O (stereo not drawn)	12	-0.6	1	-14	-4	-1	5	-1.5	-2	-2.0
NC[C@H](Cc1ccccc1)NCCc1cc(C(F)(F)F)cc(C(F)(F)F)c1	·	0.6	·	19	6	-28	-41	-20	-1	1.5
Cc1cc(NC(=O)CS(=O)(=O)c2cn(Cc3ccc(F)cc3)c3ccccc23)no1	-2	0.0	-2	6	1	1	-13	5.3	11	0.7
CN1CCC(NC(=O)CCc2ccccc2)CC1	-6	1.1	26	-2	·	14	-4	-0.7	-6	-2.5
O=S(=O)(N1CCCCCC1)N1CCNCC1	0	0.8	-7	-1	5	6	11	2.3	-2	1.3
Cc1ccc2nsnc2c1S(=O)(=O)N1CCN(CCc2ccccc2)CC1	9	-0.5	5	4	-8	·	·	·	-4	4.7
Cc1cnc(C(=O)OCC(=O)NC(C)C)cn1	-21	0.5	-19	4	-10	·	·	·	1	0.0
Cc1ccc(-n2c(C)cc(/C=N/NC(=O)c3ccncc3)c2C)cc1	-33	2.2	4	-1	-7	·	·	·	22	6.1
CC(=O)N1N=C(c2ccc(C)cc2)CC1c1ccc2c(c1)OCO2 (stereo not drawn)	-4	-0.8	0	4	-4	-9	-15	6.1	4	-0.7
O=C(NCc1ccccc1)c1ccc(C2SCC(=O)N2Cc2ccccc2)cc1 (stereo not drawn)	4	-0.1	33	18	5	·	·	·	-7	-3.5
CCC/C=C(\CCC)C(NC(=O)OCC(C)C)c1ccc(C(=O)OC)cc1 (stereo not drawn)	-2	0.1	15	0	3	7	7	-6.8	·	-1.9
COc1cccc(N2C(=O)CC(NNC(=O)c3cccs3)C2=O)c1 (stereo not drawn)	12	-0.6	0	5	-2	9	9	1.2	6	2.5
COc1ccc(Cl)cc1-c1nc(SCC(=O)NC2CC2)n[nH]1	-5	0.7	1	-7	3	9	13	0.3	-2	1.7
CC1Sc2ccc(S(=O)(=O)CCC(=O)NC3CCCCC3C)cc2NC1=O (stereo not drawn)	-10	1.1	-12	5	1	-1	1	5.8	-3	-1.9
COc1ccc2c(=O)cc(CO)oc2c1	·	0.6	·	-1	-1	8	3	2.5	-6	i
O=C(Nc1ccccc1)N1CCC(C(=O)N(Cc2ccco2)Cc2cccs2)CC1	-13	-1.1	11	2	4	-9	-12	-2.5	-4	-0.4
Cc1nc(SCC(=O)N2CC(C)OC(C)C2)nc(C)c1C (stereo not drawn)	3	0.5	-15	-3	-1	·	·	·	-18	-3.3
Cc1cc(N2C(=O)C(=O)/C(=C(/O)c3ccc(F)cc3)C2c2ccc(Cl)cc2)no1 (stereo not drawn)	-2	-0.6	-14	1	-4	·	·	·	·	-1.5
Cn1cccc1C(=O)NC(=O)COC(=O)c1ccccc1O	-2	-1.5	-15	-3	-5	·	·	·	·	-0.1
Cc1nnc(NC(=O)c2ccc(-c3cccc(C(F)(F)F)c3)o2)s1	·	-1.0	·	-1	1	·	·	·	-5	-1.2
OC(COc1ccc(Cl)cc1Cl)Cn1ccnc1 (stereo not drawn)	0	0.8	6	-7	-3	-1	0	-1.6	1	-2.6
Clc1nc(NCc2cccnc2)nc(N2CCOCC2)n1	-16	-1.1	-10	5	-1	·	·	·	-4	-0.3
CCOC(=O)c1cc(-c2ccccc2)nc2c1c(C)nn2-c1ccccn1	6	0.0	35	-8	34	·	·	·	·	2.1
COc1cc(/C=N/Nc2nc(Nc3ccc(C)cc3)nc(-n3nc(C)cc3C)n2)cc(OC)c1OC	2	-0.3	58*	1	51	·	·	·	-6	2.6
CCOc1ccc(-c2csc3nc[nH]c(=O)c23)cc1	-1	-1.6	2	12	-3	-13	-18	0.7	1	-7.1
Cc1c(CN2CCC(C(=O)Nc3cccc(-c4cccc(Cl)c4)c3)CC2)cnn1C	9	0.8	10	6	7	-14	-20	8.3	·	0.7
COc1ccc(NC(=O)c2sc3cc(C(F)(F)F)cnc3c2-c2cccs2)cc1	14	?	-8	3	9	·	·	·	-1	-2.5
COc1ccc(OC)c(NC(=O)CC(Cc2ccccc2OC)C(=O)O)c1 (stereo not drawn)	28	-1.0	-12	2	-6	·	·	·	6	0.1
CCOc1ccc(C2/C(=C(\O)c3c(C)[nH]c(C(=O)OC)c3C)C(=O)C(=O)N2CCN(C)C)cc1 (stereo not drawn)	-2	0.3	-13	4	-3	-4	-9	-3.0	4	-0.6
COC(=O)c1c(C)n(-c2ccc(OC)cc2)c2ccc(O)cc12	-11	0.8	15	-9	1	·	·	·	-12	4.7
Cc1ccnc(NC(=O)CNC(=O)c2ccccc2)c1	-2	0.6	-4	-5	·	1	1	0.6	-2	7.7
Cc1cccc2cc(COC(=O)C(C)C)c(=O)[nH]c12	-14	0.3	-11	-2	11	·	·	·	0	0.2
COc1ccc(-c2nnn(CC(=O)N(Cc3cccs3)C(C)C(=O)NCCC(C)C)n2)cc1OC (stereo not drawn)	8	0.1	-15	1	3	·	·	·	-1	-4.5
Cc1cc(C)n(/N=C/c2ccccc2O)c(=O)c1	-5	0.3	-17	-1	-10	14	19	0.9	-9	-2.0
CN(C)c1ccc(/C=N/O)cc1	-2	1.2	-9	-5	3	14	13	1.5	99*	4.1
COc1cc(/C=C(/C#N)c2nc3ccccc3[nH]2)ccc1OCC(=O)Nc1ccccc1C	·	7.2*	·	3	3	8	2	5.5	-3	12
O=C(CSc1nc2ccc([N+](=O)[O-])cc2[nH]1)NC1CCCCCC1	31	1.4	-1	13	22	·	·	·	0	1.3
O=C(c1ccccc1)c1ccc(OCC(O)CNCc2ccc(Cl)cc2)cc1 (stereo not drawn)	·	-1.4	38	5	-2	-25	-49	-3.5	-71	-4.6

Bioassay records: PubChem, several laboratories
